# Sa RN4220 lethal: S. aureus RN4220 growth inhibition | OD600, 16 h | inhibition, % (concentration not given with the values) | actives 0.33% (n = 330,000) | AID 1259311;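 active = z-score of -3 or lower and OD600 up to 0.18 on both plates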;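 note: plate controls were untreated cells for no effect and reference antibiotic for full effect; stock transfer was 100 nL into about 80 µL; one replicate is shown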
# Sa ugtP lethal: kills S. aureus RN4220 lacking UgtP | S. aureus RN4220 ugtP deletion, OD600 growth, 16 h; some inactives read as strong as hits | growth inhibition, % (concentration not given with the values) | actives 0.54% (n = 330,000) | AID 1259309;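 active = z-score under -3 and OD600 up to 0.15 on both plates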;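 note: plate controls were untreated wells for no effect and antibiotic for full effect; wells of about 80 µL received 100 nL stock; the first replicate is given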
# Autofluor counter: counter-screen for toxin protease inhibitors: compound fluorescence; compound autofluorescence counterscreen, microsphere flow cytometry; hits give high values; fluorescence intensity (concentration not given with the values); actives 3.1% (n = 360,000);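 active = at least 3 SD above the mean of all compounds, about 16000 in these data; inconclusive = too few beads counted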;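 note: 100 nL of 1 mM stock went into each well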
# BJeLR viability: kills HRASV12-expressing BJeLR cells; BJeLR (HRASV12) viability, CellTiter-Glo ATP luminescence, 48 h; reference of the scale not given here; inhibition, % (no concentration beside the values); AID 1554; actives 0.17% (n = 300,000);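 active = replicate mean above 50%; inconclusive = above 50% but judged a plate artefact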;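 note: 50 nL library stock added to about 25 µL; numbers are from one replicate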
# PrP UTR inh: suppresses PrP 5' UTR mRNA reporter expression; cell-based PrP 5' UTR mRNA reporter, plate reader; inhibition, % (no concentration beside the values); actives 0.35% (n = 340,000);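 active = every replicate at 50% or more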;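 note: 0 = median of the neutral control wells; tested in H4 reporter cells; numbers are from one replicate; inactives centre near -14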
# Mtb hypoxia inh: reduces hypoxia-regulated biosensor signal in M. tuberculosis | fluorescence inhibition, % (test concentration not listed) | actives 0.1% (n = 300,000) | M. tuberculosis hypoxia-regulated fluorescent reporter, fluorescence | AID 1159583;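 active = 35 to 45% if threefold the growth effect, above 45% if 1.5-fold the growth effect; inactive = the rest, general growth blockers included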;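 note: wells of about 50 µL received 100 nL stock; 0% = vehicle wells and 100% = reference inhibitor wells; whole bacteria with a GFP reporter of the hypoxia response; strong numbers were not always called active; many hits fall short of the cut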
# Mtb hypoxia inh growth: recorded beside Mtb hypoxia inh, whose call it bears; growth inhibition, %; measured here: M. tuberculosis growth (absorbance);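 0% = vehicle and 100% = reference antibiotic; read after six days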
# The depositor's hits bear a star; ? = inconclusive; . = no result given; & = joins results of further samples.
SMILES,Sa RN4220 lethal,Sa ugtP lethal,Autofluor counter,BJeLR viability,PrP UTR inh,Mtb hypoxia inh,Mtb hypoxia inh growth
CC(C(=O)Nc1ccc(N2CCOCC2)cc1)N1C(=O)NC(C)(C)C1=O (stereo not drawn),1.0,2,9096,.,-21,4,-8
Cc1cc(Cl)nc(Cl)c1C(=O)NC(=O)NCCC(C)C,4.4,1,3401,7,52,9,3
Cc1ccccc1N(CC(=O)NC1CCCC1)C(=O)C1(C)CC(=O)N=C2C=CC=CN21 (stereo not drawn),4.8,1,4045,3,2,-3,1
CCCNC(=O)N[C@@H](CCSC)C(=O)OC,2.3,11,7884,28,-2,4,-5
O=C(NN=Cc1ccccc1C(=O)O)c1cccc(S(=O)(=O)N2CCOCC2)c1,27,2,.,.,.,-6,-6
Cc1cc(C(=O)Nc2ccc(S(=O)(=O)N3CCCC3)cc2)cs1,2.5,-1,10938,.,1,1,5
COCCCNC(=O)c1c(N)n(/N=C/c2ccccn2)c2nc3ccccc3nc12,.,.,4797,-5,1,.,.
O=C(NNS(=O)(=O)c1ccccc1)C(O)(c1ccccc1)c1ccccc1,5.3,3,2225,-5,-5,1,8
CCC(C)NC(=O)c1cnc2n(c1=O)CCS2 (stereo not drawn),1.5,6,5854,.,-7,11,10
NC(=O)c1nn(-c2ccccc2)nc1NC(=O)Cn1nnc(-c2ccccc2)n1,5.5,5,2446,2,-14,10,1
O=C(O)CSc1ncccc1C(=O)O,4.8,5,2554,10,-4,2,-3
CCCCNC(=O)c1cc(-c2ccc(F)cc2)on1,9.9,1,11177,10,-98,22,18
Cc1nc2ccc(S(=O)(=O)NCC(=O)N3CCc4ccccc4C3)cc2s1,-14,-7,3298,-6,-14,4,12
Cc1cc(C)cc(C(=O)Nc2cccnc2)c1,2.6,-1,3388,-7,1,1,6
CCOc1ccc(-n2c(SCC(=O)Nc3ccc(CC)cc3)nc3n[nH]c(C)c3c2=N)cc1,8.6,6,2440,1,-1,12,-1
CC=Cc1ccc(OCCCNCC(C)O)c(OC)c1 (stereo not drawn),2.2,8,.,.,.,9,14
CC12CCC(C(=O)NNc3ccccc3)(C(=O)C1=O)C2(C)C (stereo not drawn),0.4,0,4542,6,-14,-1,-1
CCc1nc(SCc2ccc(OCC(C)C)cc2)n[nH]1,6.9,3,4217,8,-25,-8,7
Cc1ccc(Nc2cc(C)nc3ncnn23)c(C)c1,3.2,5,3613,0,-24,11,5
COc1ccccc1NC(=O)Nc1cccc(C)n1,5.4,-6,3945,-1,11,-13,-2
Cn1c(=O)c2c(nc(Cc3ccccc3)n2C)n(C)c1=O,1.0,15,3181,4,-17,1,-7
Cc1ccccc1NC(=O)c1cc[n+]([O-])cc1,4.9,6,2954,-4,-14,6,1
Cc1cc(C)cc(SCc2noc(C(=O)NCCN(C)C)c2C(=O)NCCN(C)C)c1,-0.1,-15,3016,2,-15,9,6
CSc1nnnn1-c1ccc(C(=O)O)cc1,1.0,1,3310,-7,-23,12,7
CCN(C(=O)c1ccc(NC(C)=O)cc1)c1ccccc1,2.3,5,21341*,7,-5,4,11

# The results go on.
SMILES,Sa RN4220 lethal,Sa ugtP lethal,Autofluor counter,BJeLR viability,PrP UTR inh,Mtb hypoxia inh,Mtb hypoxia inh growth
CCCCNc1c(-c2ccc(-c3cccc(Cl)c3)cc2)nc2ccc(Cl)cn12,0.9,-9,4093,.,-20,13,7
COc1cc(OC)cc(C(=O)N2CCCc3ccccc32)c1,5.5,11,10492,-8,-34,10,5
COc1ccc(OCC(=O)Nc2ccc3nc(C)sc3c2)cc1,5.1,1,4330,2,-15,13,5
Cc1ccc(S(=O)(=O)NCc2ccccc2)cc1C(=O)N1CCCC(C(F)(F)F)C1 (stereo not drawn),7.1,9,5315,-4,-19,0,2
CCOC(=O)c1c(N)n(CCOC(=O)c2cccs2)c2nc3ccccc3nc12,-2.1,-5,8086,0,-9,-1,-2
COc1ccc2nccnc2c1[N+](=O)[O-],3.3,9,3562,14,-16,6,8
CCN(CC)S(=O)(=O)c1ccc(C(=O)Nc2cc(C)on2)cc1,2.3,8,3767,-4,-15,13,7
CN1CC(C(=O)c2ccc(Cl)cc2)C(c2ccccc2F)C1 (stereo not drawn),2.0,-10,3357,0,-11,-5,5
Cc1nc2cc(N)ccc2n1C1CCCCC1,5.0,16,4235,6,-13,10,6
COC(=O)c1ccc(COC(=O)C(CCS(C)(=O)=O)N2C(=O)c3ccccc3C2=O)cc1 (stereo not drawn),7.4,13,2090,5,-1,0,3
CCN1C(=NCCOC)NC(CCc2ccccc2)C(C(=O)OC)C1C (stereo not drawn),3.1,-7,.,.,.,8,8
CCN1CCN(C(=O)CN2C(=O)COc3ccc(C)cc32)CC1,-1.1,-6,3953,-5,-3,4,-7
CCCN1C(=S)SC(C)(C)C1/[N+]([O-])=C/c1ccc(S(=O)(=O)NC)cc1 (stereo not drawn),0.9,-8,5828,-14,-9,11,-4
CCOC(=O)c1cc(NC(=O)COC)ccc1O,5.5,2,.,5,.,7,8
O=C(COc1ccc(Cl)cc1)N(Cc1ccco1)C1CCS(=O)(=O)C1 (stereo not drawn),1.7,12,6478,-1,4,-9,-10
O=C(COc1ccc(Br)cc1)Nc1ccccc1C(=O)NC1CC1,2.6,17,?,2,-23,7,2
CN1CCN(C(=O)c2cc3nc(-c4ccccc4)cc(C(F)(F)F)n3n2)CC1,1.5,8,2650,8,-16,.,.
CN(C)CCCNc1nc(-c2ccccc2)nc2ccccc12,0.5,0,4113,-4,-16,-10,-4
c1ccc(C2=Nn3c(Cn4nnc5ccccc54)nnc3SC2)cc1,7.2,3,6599,-15,.,-13,-3
O=C(Nc1n[nH]c(C(F)(F)F)n1)c1cccs1,1.5,6,4384,-1,-17,-6,-4
CCn1c(CSCc2ccccc2)n[nH]c1=S,-0.3,-4,4853,10,-3,-2,-5
C#CCn1c(=NC(=O)CSC(C)=O)sc2cc(F)ccc21,-9.4,-9,5946,-23,-2,2,11
Cc1ccc(SCc2[nH]nc3c2C2(C(=O)Nc4ccc([N+](=O)[O-])cc42)C(C#N)=C(N)O3)cc1 (stereo not drawn),-5.0,-22,5928,-5,-5,-4,21
CN(C)C(CNC(=S)Nc1ccc(F)cc1)c1cccnc1 (stereo not drawn),5.1,9,1992,-10,-30,7,2
CCCC(=O)Nc1nc(-c2ccc(OC)cc2)cs1,0.9,9,3217,9,-16,11,9

# (next part)
SMILES,Sa RN4220 lethal,Sa ugtP lethal,Autofluor counter,BJeLR viability,PrP UTR inh,Mtb hypoxia inh,Mtb hypoxia inh growth
O=C(CSc1ccc(Cl)cc1)NCC1CCCO1 (stereo not drawn),3.7,1,2745,4,0,.,.
CCN(CC)S(=O)(=O)c1cccc(NC(=O)COC(=O)C2CC3C=CC2C3)c1 (stereo not drawn),7.7,8,3849,-1,1,1,1
Cc1cccn2cc(CNC(=O)c3ccc(Br)o3)nc12,-10,-4,5549,-3,-24,4,8
CC1Cc2ccccc2N1C(=O)CN1C(=O)COc2ccccc21 (stereo not drawn),4.0,0,3595,-4,-24,6,7
CC(C)CCN1C(=O)c2ccc(C(=O)N3CCCCC3)cc2C1=O,0.3,8,?,12,-16,11,-6
CCc1ccc(-c2cc(C)no2)cc1S(=O)(=O)NCCc1ccc(S(N)(=O)=O)cc1,1.5,0,5544,4,8,-4,10
NC(=O)NC(CC(=O)NNC(=O)c1ccccn1)c1ccccc1Cl (stereo not drawn),0.2,4,7986,.,-12,-2,-16
O=C(COC(=O)c1cccnc1Cl)Nc1nc(-c2ccccc2)cs1,0.0,3,2321,-2,-32,2,2
O=C(CCN1C(=O)C2C3CCC(C3)C2C1=O)Nc1ccc(F)cc1 (stereo not drawn),1.9,-2,4326,-2,-13,-2,-1
Cc1cc(C)nc(NN=CC2=C(N3CCOCC3)/C(=C/c3ccccc3)CC2)n1,7.5,12,.,.,.,1,6
COc1ccc(/C=N/NC(=O)COc2ccc3ccccc3c2)c(C(=O)O)c1OC,.,.,9417,4,-10,.,.
Cc1ccccc1N/C(=N/S(=O)(=O)c1ccccc1)c1ccc(F)cc1,-0.8,-6,4384,-15,-17,1,-2
COc1ccc(NC(=O)CCC(=O)NN=Cc2cccnc2)cc1,1.2,3,.,.,.,0,-6
CNS(=O)(=O)Cc1ccc2[nH]cc(CCN(C)C)c2c1,5.3&4.4,0&-1,4530&5209,6&-3,-6&-8,1&-3,6&-3
COCC1CCN(Cc2nc(COc3ccccc3)no2)C1 (stereo not drawn),10,4,4221,-7,-37,0,-3
CCOc1ccc(C(=O)N/N=C/c2cc(Cl)ccc2[N+](=O)[O-])cc1,.,.,2019,-7,-16,.,.
Cc1ccc(OCC(=O)NN=Cc2ccncc2)c(C)c1,3.2,4,.,.,.,11,-9
Cc1ccc2cc(C(c3nnnn3C3CCCC3)N(Cc3ccco3)Cc3cccs3)c(=O)[nH]c2c1 (stereo not drawn),1.8,-14,24754*,-3,-6,2,-2
COC(=O)CN1C(=O)[C@H]2[C@@H](c3ccc(C)o3)N3C(=O)CN(Cc4ccccn4)C(=O)[C@@]3(Cc3ccccc3)[C@H]2C1=O,-12,-2,3512,-8,-19,14,5
Nc1nnc(/C=C/c2cccc([N+](=O)[O-])c2)s1,-1.7,-5,.,-5,-15,0,-6
CC(/C=N/NC(=O)c1cc(C(C)(C)C)[nH]n1)=C\c1ccccc1,.,.,2848,-4,-3,.,.
CCCn1c(N)c(N(CCOC)C(=O)C(C)Oc2ccc(F)cc2)c(=O)[nH]c1=O (stereo not drawn),1.7,2,5774,1,-21,8,1
Cc1ccc(C(=O)NCCNC(=O)COc2ccc(C)c(C)c2)cn1,2.2,1,2972,-12,-4,12,3
O=C(NN=Cc1cccs1)c1ccc2ccccc2c1,2.6,0,.,.,.,7,7
COc1ccc(OC)c(N(CC(=O)Nc2cccnc2)S(=O)(=O)c2ccc(C)cc2)c1,4.5,2,5262,0,-8,2,4

# Part of the list above in order of molecular weight, high to low:
SMILES,Sa RN4220 lethal,Sa ugtP lethal,Autofluor counter,BJeLR viability,PrP UTR inh,Mtb hypoxia inh,Mtb hypoxia inh growth
COc1ccc(/C=N/NC(=O)COc2ccc3ccccc3c2)c(C(=O)O)c1OC,.,.,9417,4,-10,.,.
Cc1ccccc1N/C(=N/S(=O)(=O)c1ccccc1)c1ccc(F)cc1,-0.8,-6,4384,-15,-17,1,-2
Cc1cccn2cc(CNC(=O)c3ccc(Br)o3)nc12,-10,-4,5549,-3,-24,4,8
O=C(CCN1C(=O)C2C3CCC(C3)C2C1=O)Nc1ccc(F)cc1 (stereo not drawn),1.9,-2,4326,-2,-13,-2,-1
COc1ccc(NC(=O)CCC(=O)NN=Cc2cccnc2)cc1,1.2,3,.,.,.,0,-6
CC1Cc2ccccc2N1C(=O)CN1C(=O)COc2ccccc21 (stereo not drawn),4.0,0,3595,-4,-24,6,7
CNS(=O)(=O)Cc1ccc2[nH]cc(CCN(C)C)c2c1,5.3&4.4,0&-1,4530&5209,6&-3,-6&-8,1&-3,6&-3

# Later entries:
SMILES,Sa RN4220 lethal,Sa ugtP lethal,Autofluor counter,BJeLR viability,PrP UTR inh,Mtb hypoxia inh,Mtb hypoxia inh growth
COc1ccc(NC(=O)c2cc(-c3cccnc3)nc3c(C)c(C)ccc23)c(OC)c1,4.8,-19,17562*,-11,-18,-6,6
Cc1ccc(C(=O)N(CCc2ccccc2)Cc2ccccc2)cc1S(=O)(=O)N1CCOCC1,-0.2,-4,2993,.,5,-6,2
O=C(NN=C/C=C\c1cccc([N+](=O)[O-])c1)c1cccnc1,2.1,-2,.,.,.,8,1
O=C(Nc1ccc([N+](=O)[O-])cn1)c1ccc2c(c1)OCO2,4.0,-2,4319,5,-63,11,8
COCCCN1C(=O)C(=O)/C(=C(/O)c2ccc(S(=O)(=O)N3CCCCC3)cc2)C1c1ccc(O)cc1 (stereo not drawn),2.2,3,5581,-7,9,-1,7
Cc1ccc(NC(=O)COC(=O)CCc2c(C)nc3ncnn3c2C)cc1,7.3,4,3908,.,-11,14,8
Cc1cccc(NC(=O)COC(=O)C2COc3ccccc3O2)c1C (stereo not drawn),-1.3,4,3001,.,-5,3,5
O=C1CC(c2ccccc2)CC(O)=C1C=NC1CCCCC1 (stereo not drawn),-4.8,-16,23531*,-10,-29,-6,6

# Molecules from the list above containing bromine (2):
SMILES,Sa RN4220 lethal,Sa ugtP lethal,Autofluor counter,BJeLR viability,PrP UTR inh,Mtb hypoxia inh,Mtb hypoxia inh growth
O=C(COc1ccc(Br)cc1)Nc1ccccc1C(=O)NC1CC1,2.6,17,?,2,-23,7,2
Cc1cccn2cc(CNC(=O)c3ccc(Br)o3)nc12,-10,-4,5549,-3,-24,4,8

# Source: PubChem BioAssay
